High-throughput results (PubChem)
fixLJ activator – activators of Burkholderia fixLJ two-component system; B. multivorans fixK-promoter GFP reporter, 18 h; hits give high values; actives 0.3% (n = 29,000); z-score (concentration not given with the values); AID 1918990;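 active = replicate mean overnight rise in green fluorescent reporter signal, 3 or more SD over negative controls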;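 also: score is relative to vehicle wells of the plate; 300 nL library stock went into each well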
An asterisk follows results filed as active; & = joins results of further samples. The list is partial; count on the stated rates, not on these rows.

SMILES	fixLJ activator
CN(CC(=O)N1CC2CCC1CN(C(=O)N(C)C)C2)Cc1ccncc1 (stereo not drawn)	-1.18
Cc1cc(C)nc(-c2ccc(C(=O)N3CCCC4(CCOCC4)C3)cc2)n1	0.69
Cc1ccc(OCC(=O)Nc2c(Cl)ccc3nsnc23)cc1C	-1.59
CCCCn1c(NCc2ccc(OC)cc2O)nc2ccccc21	-0.64
CCOc1ccc(-c2cc(OC(=O)c3ccc(F)cc3)c3c(C)oc(C)c3c(=O)c2)cc1	-1.83
Cc1cccc(N2CCN(C(=O)Cn3ncc4c3-c3ccccc3OC4)CC2)c1C	-5.4
Cc1coc2c(C)c3oc(=O)c(CCC(=O)NCCc4ccccc4F)c(C)c3cc12	-2.55
COC(=O)c1cc2oc3ccccc3c2n1CC(=O)Nc1ccc(OC)c(OC)c1OC	-0.73
CCOC(=O)c1cnc2nc(NCc3cccc(Br)c3)[nH]n2c1=O	-0.07
COc1cc(C(=O)N2CCCN(Cc3nnc(C)s3)CC2)ccn1	-0.74
O=C(Nc1ccc(F)cc1)c1nc(SCc2ccccc2F)ncc1Cl	-0.79
Cc1ccc2oc3c(c(=O)c2c1)C(c1ccc(O)cc1)N(c1nc(C)c(C)s1)C3=O (stereo not drawn)	-0.65
CCCC(C)N1CC2(CCN(C(=O)c3ccnn3C)CC2)OC1=O (stereo not drawn)	-0.33
CCn1cc(C(=O)N2CCN(c3ccccc3)CC2)c(=O)c2cc(S(=O)(=O)N3CCCC3)ccc21	-1.63
CCCCNc1nc2c(c(=O)n(C)c(=O)n2C)n1CC(O)COc1ccccc1C (stereo not drawn)	-0.48
CC(=O)c1sc(N2C(=O)c3oc4ccccc4c(=O)c3C2c2ccc(C)cc2)nc1C (stereo not drawn)	1.51
Cn1c(=O)c(=O)n(C)c2cc(N3CCCC3)c(NC(=O)c3ccccc3F)cc21	-0.76
CCOC(=O)c1ccc(NC(=O)c2cc3c(n(-c4ccc(C)cc4)c2=O)CC(C)(C)CC3=O)cc1	-0.46
COc1ccc(CCNC(=O)CCCCn2c(=O)c3ccccc3n(Cc3ccc(F)cc3Cl)c2=O)cc1OC	-1.91
CCc1ccc(OCC(=O)N(Cc2ccc(Cl)cc2)C2CCS(=O)(=O)C2)cc1 (stereo not drawn)	-1.11
O=C(O)C1C=CCN1C(=O)CSC12CC3CC(CC(C3)C1)C2 (stereo not drawn)	-1.46
CCOC(=O)C(Cc1ccccc1)NC(=O)CCc1c(C)nc2c(c(C)nn2-c2ccc(C)c(C)c2)c1C (stereo not drawn)	0.64
COc1ccc2cc3cc(C(=O)NCc4ccc(C)cc4)oc3nc2c1	-2.21
O=C(COc1ccc(Cl)cc1)Nc1cc(-c2ccccc2)no1	-2.5
Cc1ccc2c(CC(=O)Nc3c(C(=O)Nc4cccc(Cl)c4)oc4ccccc34)coc2c1C	0.28

Continued; it opens with the five that closed the last part.
SMILES	fixLJ activator
O=C(O)C1C=CCN1C(=O)CSC12CC3CC(CC(C3)C1)C2 (stereo not drawn)	-1.46
CCOC(=O)C(Cc1ccccc1)NC(=O)CCc1c(C)nc2c(c(C)nn2-c2ccc(C)c(C)c2)c1C (stereo not drawn)	0.64
COc1ccc2cc3cc(C(=O)NCc4ccc(C)cc4)oc3nc2c1	-2.21
O=C(COc1ccc(Cl)cc1)Nc1cc(-c2ccccc2)no1	-2.5
Cc1ccc2c(CC(=O)Nc3c(C(=O)Nc4cccc(Cl)c4)oc4ccccc34)coc2c1C	0.28
CC(NC(=O)c1cc(F)ccc1OCCN)c1nncn1C (stereo not drawn)	-0.25
CCn1c(Oc2ccc(F)cc2F)nc2c1c(=O)n(C)c(=O)n2C	-0.94
COc1ccc(NS(=O)(=O)c2ccc3nc(-c4ccccc4)[nH]c3c2)cc1	0.73
CCCN1CCN(CC2=C(C(=O)OCC)C(c3cccc(OC)c3OC)NC(=O)N2)CC1 (stereo not drawn)	-0.26
CCOC(=O)c1cnc2ccc(OCC)cc2c1Nc1cc(Cl)c(OC)cc1OC	0.35
COc1ccc(CCCC(=O)NC2CCCC(NC(=O)c3cncc(O)c3)C2)cc1 (stereo not drawn)	-0.21
Cc1ccc(NC(=O)C2CCCN(C(=O)c3cnn(-c4ccccc4)c3-n3cccc3)C2)cc1 (stereo not drawn)	-2.85
CCN(C)C(=O)CN1CCCC(c2cc(N3CCCC3)nc(C)n2)C1 (stereo not drawn)	1.46
Brc1ccc(-c2nc3ccccn3c2Nc2ccc3c(c2)OCCO3)o1	-0.61
COc1ccc(C)cc1Nc1c2c(nc3ccccc13)CCC2	0.51
O=C1NC(C(=O)NCCCc2nc3ccc(Cl)cc3[nH]2)CO1 (stereo not drawn)	-1.26
COc1ccccc1OCCn1c(-c2ccc(Cl)cc2)nc2ccccc2c1=O	0.14
Cc1ncsc1CCN(C)Cc1cnc(-c2ccccn2)nc1	-1.57
O=C(Nc1ccccc1O)c1cc(S(=O)(=O)N2CCCC2)ccc1Cl	-2.06
Cc1c(NC(=O)COCc2nc3ccc(F)cc3[nH]2)cnn1C	-1.52
CC(C)CCOc1ccccc1Cn1c(=O)sc2ccccc21	2.21
CCc1ccc(C(=O)c2cn(CC(=O)Nc3ccc(C)c(C)c3)c3ccccc3c2=O)cc1	1.37
CN(Cc1cc(-c2cccs2)n[nH]1)C(=O)c1nc(N)nc2c1CCCC2	1.17
Cc1cccc2nc(-c3ccc(Cl)s3)c(Nc3ccc4c(c3)OCCO4)n12	0.38
Cc1ccc(NC2=C(CC(=O)O)C(c3ccc(F)cc3)N(c3ccc(C)cc3)C2=O)cc1 (stereo not drawn)	-0.89
COc1ccc(NS(=O)(=O)c2ccc3c(c2)CCN3C(=O)CCC(=O)O)cc1Cl	-0.37
Cc1ccc(COC(=O)c2[nH]c3c(c2C)C(=O)CC(c2ccc(Cl)cc2)C3)cc1 (stereo not drawn)	-0.92
CCOC(=O)C1=C(CS(=O)(=O)c2ccc(C(C)(C)C)cc2)NC(=O)NC1c1cccc(OC)c1 (stereo not drawn)	-1.1
Cc1cccc(C(=O)n2nc(-c3cccnc3)nc2NCc2ccc(F)cc2)c1	0.56
Cc1ccccc1Cn1c(COc2ccc(Cl)cc2)nc2ccccc21	2.26

Quoted at random: seven compounds from above.
SMILES	fixLJ activator
CCOc1ccc(-c2cc(OC(=O)c3ccc(F)cc3)c3c(C)oc(C)c3c(=O)c2)cc1	-1.83
Cc1c(NC(=O)COCc2nc3ccc(F)cc3[nH]2)cnn1C	-1.52
O=C(Nc1ccc(F)cc1)c1nc(SCc2ccccc2F)ncc1Cl	-0.79
CCCCNc1nc2c(c(=O)n(C)c(=O)n2C)n1CC(O)COc1ccccc1C (stereo not drawn)	-0.48
CCn1cc(C(=O)N2CCN(c3ccccc3)CC2)c(=O)c2cc(S(=O)(=O)N3CCCC3)ccc21	-1.63
CC(=O)c1sc(N2C(=O)c3oc4ccccc4c(=O)c3C2c2ccc(C)cc2)nc1C (stereo not drawn)	1.51
COc1ccc(CCNC(=O)CCCCn2c(=O)c3ccccc3n(Cc3ccc(F)cc3Cl)c2=O)cc1OC	-1.91

The list continues.
SMILES	fixLJ activator
CS(=O)(=O)CCC(=O)NCC1(c2ccc(Cl)cc2)CC1	0.02
CCOCCCn1c(=N)c(C(=O)NC2CCCC2)cc2c(=O)n3cc(C)ccc3nc21	-0.61
O=C(CCc1cccnc1)NC1CCC(NC(=O)c2csc3ccccc23)C1 (stereo not drawn)	-0.81
COc1cccc(OCc2cc(C(=O)N(C)Cc3nncn3C)n[nH]2)c1	-1.49
CCN(CC)C(=O)CN1C(=O)COc2ccc(S(=O)(=O)N3CCOCC3)cc21	-0.13
Cc1cc2nc(-c3cccc(NC(=O)c4cccc5ccccc45)c3)oc2cc1C	-1.21
N#C/C(=C/c1ccccc1Cl)c1nc2ccccc2c(=O)[nH]1	1.45
COc1ccc(OC)c(NS(=O)(=O)c2ccc(Br)s2)c1	-0.27
Cc1nn(CC(=O)NC2CC2)c(=O)c2cc3ccccc3n12	-1.35
Cc1ccc(C(=O)Nc2c(C(=O)Nc3ccc(C)c(C)c3)sc3nc(C)cc(C)c23)cc1	-3.69
COc1cc2ccccc2cc1C(=O)Nc1ccc2oc(-c3ccccc3)nc2c1	-3.13
Cc1cccc(NC(=O)c2c(NC(=O)c3ccco3)sc3c2CCC(C(C)(C)C)C3)c1 (stereo not drawn)	-0.07
O=C(Nc1cccc(C(F)(F)F)c1)C1CCCN(S(=O)(=O)c2cccc3nsnc23)C1 (stereo not drawn)	-1.41
CCCCN(C)CC(O)Cn1cc(/C=C/C(=O)c2ccc(OC)c(OC)c2)c2ccccc21 (stereo not drawn)	-6.77
Cc1ccc(Cn2c(C(=O)Nc3ccc(Cl)cc3)cc3sccc32)cc1	1.86
COc1cc2nc(SCC(=O)Nc3ccccc3F)n3nc(-c4ccccc4)nc3c2cc1OC	-0.08
Cc1nn(CC(=O)NCc2ccco2)c(=O)c2cc3ccccc3n12	-1.84
Cn1c(C(=O)Nc2cccc(Cl)c2)cc2c(=O)n(C)c3ccccc3c21	0.19
CC1CCC(NC(=O)c2ccc3c(c2)N(Cc2ccccc2F)C(=O)c2ccccc2S3=O)CC1 (stereo not drawn)	-0.36
COC(=O)C1=C(C)NC(C)=C(C(=O)OC)C1c1ccccc1[N+](=O)[O-]	-1.62&-0.28
COc1cccc(CC(=O)N2CC3CN(S(C)(=O)=O)C[C@]3(C(=O)O)C2)c1 (stereo partly drawn)	0.63
CCCN1CCN(CC2=C(C(=O)OCC)C(c3ccc(OC(C)C)cc3)NC(=O)N2)CC1 (stereo not drawn)	-1.41
CC1=C(CC(=O)O)c2cc(F)ccc2/C1=C\c1ccc(S(C)=O)cc1 (stereo not drawn)	-0.21
O=C(C1CCC1)N1C2CCC1[C@](Cc1ccccc1)(C(=O)O)C2 (stereo partly drawn)	2.37
CC1CN(C(=O)Nc2ccc(-c3cc(C(F)(F)F)nn3C)cc2)CCCO1 (stereo not drawn)	1.84

More structures.
SMILES	fixLJ activator
O=C(CCCN1CCCC1=O)NC1COCC1Cc1ccnc2ccccc12 (stereo not drawn)	-1.49
O=C1CN(C(=O)Cc2ccccc2)C(c2ccc(F)cc2)c2cc(Br)ccc2N1 (stereo not drawn)	-1.05
COc1ccc(N2Cc3cccc(C(=O)Nc4ccc(C)c(C)c4)c3C2=O)cc1	-1.39
COC(=O)c1c(C)oc2ccc(N(C(=O)c3ccncc3)S(=O)(=O)c3c(C)cc(C)cc3C)cc12	-0.92
Cc1nc(CC(=O)N2CCCN(C(=O)CCc3c(C)noc3C)CC2)cs1	-2.49
COc1ccc(-c2cc(C(F)(F)F)nc(SCC(=O)N3CCCCC3)n2)cc1	-0.86
O=C(CCCCc1ccccc1)NC1COCC1Cc1ccncc1 (stereo not drawn)	-1.21
Cc1ccc(NC(=O)c2sc3nc(-c4ccncc4)ccc3c2N)cc1	-36.5
CCOC(=O)c1c(NC(=O)CSc2cn(CCNC(=O)c3ccccc3OC)c3ccccc23)sc2c1CCC2	1.83
Cc1ccc(C)c(N2CCN(C3(c4ccccc4)C(=O)c4ccccc4C3=O)CC2)c1	0.4
Cc1ccc(Nc2cc(C(=O)NCc3cccs3)c3ccccc3n2)c(C)c1	0.14
Cc1ccc(Cn2c(SCc3ccc(C(=O)NCCc4ccccc4)cc3)nc3ccncc32)cc1	-6.21
Cc1ccc(-c2nnc(SCc3ccccc3C)o2)cc1	-1.6
CCOc1cc(C2c3c(oc4ccc(F)cc4c3=O)C(=O)N2Cc2ccc(C)cc2)ccc1O (stereo not drawn)	0.26
Cc1ccc(C)c(NC(=O)CCOc2ccccc2)c1	-1.12
O=C(O)CC1(NC(=O)N2CCCC(c3ccncn3)C2)CCCCC1 (stereo not drawn)	-2.15
CCn1cc(/C=C(\NC(=O)c2ccc(OC)cc2)C(=O)NCCCn2ccnc2)c2ccccc21	-1.54
COCCCn1c(=O)c2sccc2n2c(CCCC(=O)Nc3ccc(F)c(F)c3)nnc12	-0.03
Cc1cc(C)c(Cn2c(CCNC(=O)c3ccco3)nc3ccccc32)c(C)c1	-0.24
CCc1nccc(CN2CCC(c3cc(Cc4ccccc4)[nH]n3)CC2)n1	0.82
Fc1ccc(N2CCN(c3ncnc4onc(-c5ccc(Cl)cc5)c34)CC2)cc1	-2.17
Cn1c(=O)c2sccc2n2c(CCCC(=O)Nc3ccc(F)cc3F)nnc12	1.75
COc1cc(C2c3c(oc4ccccc4c3=O)C(=O)N2c2ccccn2)cc(OC)c1OC (stereo not drawn)	-1.27
COc1ccc(NC(c2ccc(F)cc2)c2nnc(-c3ccccc3Cl)o2)cc1Cl (stereo not drawn)	0.75
Cc1ccc2c(c1)c(=O)c(C(=O)c1ccc3c(c1)OCO3)cn2Cc1ccc(Cl)cc1	0.71

Next section
SMILES	fixLJ activator
Cc1noc(C2CCCCN2C(=O)NCc2cc(-c3ccccn3)no2)n1 (stereo not drawn)	0.91
CCCCN(C)CCCNC(=O)Cn1ncc2c3ccccc3n(Cc3cccc(Cl)c3)c2c1=O	6.4*
CCc1ccc2occ(CC(=O)Nc3sc4c(c3C(=O)NCCOC)CCCC4)c2c1	-0.49
Cc1ccc2c(CC(=O)Nc3ccc(S(=O)(=O)N4CCCC(C)C4)cc3)coc2c1 (stereo not drawn)	-0.32
CC(C(=O)Nc1ccccc1C(F)(F)F)n1nnc2sc3c(c2c1=O)CCCC3 (stereo not drawn)	0.36
COc1ccccc1C(=O)Nc1ccc(S(=O)(=O)Nc2ncccn2)cc1	-1.63
COc1cccc(OC)c1-c1c[nH]c(C(=O)N2CCOCC2)c1	1.03
O=C(NCCC1=CCCCC1)c1ccc2c(c1)N(Cc1ccccc1)C(=O)c1ccccc1S2(=O)=O	-0.42
CC1CN(c2ccc(Cl)cc2)c2nc3c(c(=O)n(CC(=O)O)c(=O)n3C)n2C1 (stereo not drawn)	-0.48
NC(=O)c1cc[n+](CC2=C(C(=O)O)N3C(=O)C(NC(=O)C(c4ccccc4)S(=O)(=O)[O-])C3SC2)cc1 (stereo not drawn)	0.1
Cc1ccc2c(c1)C(C)(c1ccccc1)CC(C)(C)N2C(=O)c1ccc(F)cc1 (stereo not drawn)	-0.33
CCOc1ccc(NC(=O)CSc2oc(-c3ccco3)nc2S(=O)(=O)c2ccccc2)cc1	0.43
CCOC1CN(C)CC1NC(=O)Nc1cc(-c2ccccc2)ccc1OC (stereo not drawn)	-0.89

A run of entries from further up, as a working copy:
SMILES	fixLJ activator
CN(CC(=O)N1CC2CCC1CN(C(=O)N(C)C)C2)Cc1ccncc1 (stereo not drawn)	-1.18
Cc1cc(C)nc(-c2ccc(C(=O)N3CCCC4(CCOCC4)C3)cc2)n1	0.69
